UUG fidelity: modulators of start codon recognition fidelity in yeast; S. cerevisiae UUG-firefly luciferase reporter, luminescence/redox ratio; activity score, % at 18.7 µM; actives 0.13% (n = 350,000); AID 602363;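 active = replicate mean at a twofold rise or more, about +100% in these data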;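 also: firefly luciferase made from a UUG start codon reports start codon fidelity; reporter light over untreated wells divided by growth signal over untreated wells; some hits fall short of that in this replicate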
eIF4H FP inh: inhibitors of RNA binding by human eIF4H | AID 2012 | Q15056 | actives 0.94% (n = 290,000) | eIF4H fluorescence polarization binding assay | inhibition, % at 35 µM;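 active = 50% or more with normal probe brightness, or confirmed in later tests; inconclusive = above 50% with abnormal brightness, or retests that disagree; inactive = below 50% or failed in later tests; about a fifth of its hits are not listed in these tables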;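 also: calls also rest on retests at 20 µM and on dose response follow-up; 0% = protein and probe with vehicle and 100% = probe without protein; strong numbers were not always called active; many hits fall short of the cut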
Rce1 inhib: yeast Ras-converting enzyme inhibition | Q03530 | yeast membranes, quenched prenylated peptide cleavage fluorescence | calls only | actives 0.27% (n = 290,000);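 active = fall in fluorescence gain of 50% or more versus controls, with final raw signal at or below 3038400; inconclusive = same 50% fall but final raw signal above 3038400; inactive = fall in fluorescence gain under 50%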;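 also: plate controls were neutral control wells for no effect and wells lacking membranes for full effect; tested at 10 µM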
Target sequence (Q03530 whole entry, looked up): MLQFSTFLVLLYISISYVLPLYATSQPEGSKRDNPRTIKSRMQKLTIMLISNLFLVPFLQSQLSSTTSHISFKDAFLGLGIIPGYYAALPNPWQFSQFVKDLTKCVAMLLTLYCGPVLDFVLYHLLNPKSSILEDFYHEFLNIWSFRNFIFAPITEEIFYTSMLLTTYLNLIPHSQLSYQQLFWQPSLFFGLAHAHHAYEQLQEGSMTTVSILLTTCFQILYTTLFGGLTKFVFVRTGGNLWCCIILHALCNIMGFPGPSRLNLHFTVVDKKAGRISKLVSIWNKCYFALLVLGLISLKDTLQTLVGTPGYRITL
CSC inhib: blocks cancer stem cells; cancer stem cell-like cells viability, luminescence; inhibition, % at 7.5 µM; actives 1.1% (n = 300,000);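 active = mean at 75% or more and at least half the replicates too; inconclusive = mean and replicates disagree; tested in HMLE shEcad cells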;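 also: 0% = median of negative and 100% = median of positive control wells; the first replicate is given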
PABP polyA inh: blocks human PABP binding to poly(A) RNA | P11940 | fluorescence polarization | inhibition, % at 35 µM | actives 1% (n = 290,000) | AID 2014;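 active = 50% or more with normal probe brightness, or confirmed in later tests; inconclusive = above 50% with abnormal brightness, or retests that disagree; inactive = below 50% or failed in later tests; about a fifth of its hits are not listed in these tables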;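 also: calls also rest on retests at 20 µM and on dose response follow-up; controls were probe without protein and protein plus probe with vehicle; some compounds called inactive have numbers as strong as hits; many hits fall short of the cut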
MT1-MMP act inh: blocks activation of human MT1-MMP; actives 0.061% (n = 360,000); HT1080 RFP-PRO-GFP cells, GFP/RFP ratio fluorescence, overnight; percent of plate control window, DMSO zero; GFP/RFP ratio change, % at 20 µM; P50281; AID 651647;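 active = GFP/RFP ratio change of at least 30% with cell ATP level not reduced by more than half and red fluorescence within 50% of control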; also: strong numbers were not always called active
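Assay system – RFP-PRO-GFP reporter HT1080 cells · Compound dosing – single dose of 20 µM compound, 1% DMSO final · Incubation – overnight compound exposure at 37 °C · Measure – GFP/RFP fluorescence ratio · Benchmarks – DMSO wells and RFP-L50D-GFP cells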
HIV Env fusion: inhibitors of HIV Env-mediated cell fusion | HeLa-JRFL Env/CEM21 cell fusion, luciferase | inhibition, % at 12.3 µM | actives 1.1% (n = 360,000);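 active = mean replicate inhibition score of at least 50 and every replicate individually at or above 50; inconclusive = only one of the two criteria met; inactive = mean below 50 and not all replicates reaching 50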;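 also: 0% = plate neutral controls and 100% = maraviroc near 300 nM; one replicate is shown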
eIF4H FP inh retest: also measured in eIF4H FP inh; calls as there; inhibition, %; compound at 20 µM; confirmation average;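 mean of two retest wells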
PABP polyA inh retest: further read-out of PABP polyA inh, marked with its call; inhibition, %; compound at 20 µM; confirmation repeats;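 mean of two retest wells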
MT1-MMP act inh RFP: second read-out of MT1-MMP act inh, no call of its own (marks repeat the call); RFP signal change, %; measured here: RFP expression control read;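 0 = vehicle wells; hits needed this value within 50% of zero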
* marks the source's active call; other numbers are inactive results; i = inactive; ? = inconclusive; / = not tested or not shown.

SMILES	UUG fidelity	eIF4H FP inh	Rce1 inhib	CSC inhib	PABP polyA inh	MT1-MMP act inh	MT1-MMP act inh RFP	HIV Env fusion	others
COc1cccc(Cn2cccc(NC(=O)NC3CCCCC3)c2=O)c1	-7	5	i	16	8	-13	-10	16
Cc1ccc(C(=O)Cc2nnc(C)s2)cc1	-14	2	i	-19	1	0	7	5
N#CCCC(C#N)(c1cccnc1)N1CCOCC1 (stereo unspecified)	-14	/	/	/	/	-3	4	3
C=CCc1cccc(/C=N/NC(=O)c2ccc3nc[nH]c3c2)c1O	-19	/	i	94*	/	-6	-3	8
O=C(COc1nncc2ccccc12)Nc1ccc(F)c(F)c1	/	3	/	-10	0	-5	-6	5
CC1=C(C(=O)N2CCOCC2)CC(CC(=O)NCCN2CCOCC2)C(=O)N1Cc1ccc(F)cc1 (stereo unspecified)	-9	/	/	/	/	0	3	-6
CC1CN(C(=O)C2(C)CC2(Br)Br)CC(C)O1 (stereo unspecified)	-2	-3	i	0	-14	6	5	-7
CCOC(=O)c1cc(-c2ccc(F)cc2)n(CC(=O)NC(C)CC)c1C (stereo unspecified)	/	-7	i	-10	18	-1	-5	11
CC/C(=N\NC(=O)CCC(=O)NCc1ccccc1)c1ccc(O)cc1	-18	-4	i	-5	-6	-6	-11	-9
CN1CCn2cnc(C(=O)NCC(=O)OC(C)(C)C)c2C1=O	-30	/	/	/	/	2	1	3

The final 3 entries of the section before are carried over, then new ones follow:
SMILES	UUG fidelity	eIF4H FP inh	Rce1 inhib	CSC inhib	PABP polyA inh	MT1-MMP act inh	MT1-MMP act inh RFP	HIV Env fusion	others
CCOC(=O)c1cc(-c2ccc(F)cc2)n(CC(=O)NC(C)CC)c1C (stereo unspecified)	/	-7	i	-10	18	-1	-5	11
CC/C(=N\NC(=O)CCC(=O)NCc1ccccc1)c1ccc(O)cc1	-18	-4	i	-5	-6	-6	-11	-9
CN1CCn2cnc(C(=O)NCC(=O)OC(C)(C)C)c2C1=O	-30	/	/	/	/	2	1	3
C/C(=C\c1ccccc1)C(=O)NCCc1ccccc1	/	4	i	/	7	2	4	-33
CC(=O)N1CCc2cc(S(=O)(=O)NC(Cc3ccccc3)C(=O)NC3CCCCCC3)ccc21 (stereo unspecified)	-19	-3	i	9	3	-3	-1	/
CCCN(CCC)CCCOC(=O)c1ccc(Cl)cc1Cl	-14	-13	i	-6	-5	-1	5	/
Cc1c(C(C)(C)C)sc(=NC(=O)c2ccccc2O)n1C	-19	8	i	21	0	8	-11	-240
CCOc1ccc(-c2csc(NNC3=NCCCCC3)n2)cc1	/	15	/	26	17	5	2	-9
CCOc1ccc2oc(C(=O)NC(C)(C)CC)c(C)c2c1	2	0	i	-5	-17	-1	0	-16
COc1ccccc1-c1nnc(C2CCN(S(=O)(=O)c3cccc([N+](=O)[O-])c3)CC2)o1	-7	-6	i	-12	4	-3	-6	0
COc1cccc(NC(=O)C2CCN(C(=O)NC3CCCCC3)CC2)c1	-1	-10	i	/	-13	3	5	-10
COc1ccccc1/C=N/NC(=O)C(=O)NCc1cccnc1	-9	-4	i	4	-2	-2	3	-25
O=C(NCc1ccncc1)c1ccc2nc([C@@H]3O[C@H](CO)[C@H](O)[C@H](O)[C@H]3O)[nH]c2c1	-29	/	/	/	/	0	4	9
COc1ccc(-n2ncc3c(=O)n(CC(=O)Nc4ccc5c(c4)OCCO5)cnc32)cc1	-4	-9	i	/	6	-1	-1	14
CCCNS(=O)(=O)c1ccc(C(=O)NCC2CCCO2)cc1 (stereo unspecified)	-21	1	i	-24	9	4	4	/
O=C(Nc1ccccc1)C(Cl)C(=O)c1ccccc1 (stereo unspecified)	-27	3	i	0	19	-1	5	-43
COc1ccc(-c2nc(-c3ccccc3)nc(N3CCN(C)CC3)c2C#N)cc1	-7	0	i	46	-1	-2	-9	-82
Cc1nnc(SCC(=O)Nc2ccc([N+](=O)[O-])cc2)n1C	0	4	i	-5	8	3	4	-22
COc1ccccc1CNc1nc2ccccc2n1CCN1CCCCC1	-16	6	/	-7	-12	-2	-2	-90
COc1cccc(C2NC(=O)NC(C)=C2C(=O)Nc2ccc(C)cc2)c1OC (stereo unspecified)	-2	-2	/	-12	2	-3	4	/
CC(=O)c1cccc(NC(=O)Nc2ccc(C(=O)N3CCOCC3)cc2)c1	12	2	i	1	1	-14	-13	63*
COC(=O)c1cc(Cl)cc2c(CCO)c[nH]c12	0	/	/	-17	/	3	-1	-1
NC(=O)C1(N2CCCCC2)CCN(C(=O)c2ccccc2)CC1	0	-10	i	-15	-4	-1	3	-4
CC(=O)Nc1ccc(NC(=O)c2ccc(S(=O)(=O)N(C)c3ccccc3)cc2)cc1	-2	/	/	-13	/	1	-7	/
Cc1ccc(C2(C)NC(=O)N(CC(=O)N3CCN(S(=O)(=O)c4ccc(Cl)s4)CC3)C2=O)cc1 (stereo unspecified)	/	/	i	-9	/	0	-8	1
O=C(COC(=O)c1c(F)cccc1F)Nc1ccc(N2CCCCC2)cc1	-9	/	/	-19	/	2	1	-9
O=C(Nc1ccc(N2CCN(C(=O)c3ccccc3)CC2)cc1)c1ccc(Br)o1	-1	6	i	5	3	0	-8	/
Cc1cc(NC(=S)N(Cc2ccc(Cl)cc2)Cc2ccc(C(=O)O)cc2)ccc1Cl	-19	12	i	5	6	16	-3	9
COc1ccc(/C=N/NC2=NCCCCC2)cc1	/	-23	i	/	28	3	3	/
COCCN1C(=O)/C(=C/c2ccc(N3CCCC3)cc2)SC1=S	/	?	i	11	-17	-19	59	7
Cn1c(=O)n(Cc2ccccc2)c(=O)c2c1nc1n2CCN1Cc1ccco1	/	-16	i	-12	?	0	1	16
COc1ccc(OC)c(C2=NS(=O)(=O)N(C)C(C(=O)NCc3ccco3)=C2)c1	5	7	i	-8	15	1	0	4
COCCn1c(=S)[nH]c2ccccc21	/	1	i	-10	-1	7	4	4
N#Cc1ccc(C(=O)N2CCCCC2c2cc(C(=O)Nc3ccccc3Cl)no2)cc1 (stereo unspecified)	-3	/	/	/	/	0	-1	14
Cc1ccccc1NC(=O)CN1C(=O)NC(C)(CCc2ccccc2)C1=O (stereo unspecified)	/	5	i	-13	-10	0	4	-27
CCN1CCN(C(=O)CSc2nc(N)cc(N)n2)CC1	/	8	i	-19	19	-3	0	10
COc1cc(/C=N/Nc2nc(-c3ccc(S(=O)(=O)N(C)C)cc3)cs2)ccc1O	-10	-2	i	66	-6	3	-9	-1
CCOC(=O)c1c(NC(=O)CN2CCCc3ccccc32)sc(C)c1C	/	-3	i	41	4	-16	-9	12
CCOC(=O)C1(C)CCCN(C(=O)c2ccc3c(c2)CCO3)C1 (stereo unspecified)	-15	/	/	/	/	-1	-1	-2
CCc1nnc(SCC(=O)Nc2nnc(C)s2)n1CC1CCCO1 (stereo unspecified)	-10	-10	i	0	-9	1	0	-4
CSc1ccccc1NC(=O)CCc1ccccc1	-16	-13	i	-6	-10	2	7	0
CC(C)CC(NC(=O)C(CC(C)C)NC(=O)OC(C)(C)C)C(=O)O (stereo unspecified)	-14	-3	i	-8	7	6	10	/
Cc1cc(NC(=O)CSc2nnc3ccc(-c4ccc(F)cc4)nn23)no1	/	/	i	-4	/	-1	-1	/
N#CCSc1nc2ccccc2c2nc3ccccc3n12	-14	2	i	85*	7	-9	-26	-19
Cc1cc(C(F)(F)F)nc(Nc2nc(C)c3ccccc3n2)n1	-17	16	i	-14	-3	3	0	-103
Cc1ccc(NC(=O)Nc2nnc(-c3ccncc3)s2)cc1	/	6	i	37	1	-11	-30	45
CC(=O)c1ccc(OCC(C)Oc2ccc(C#N)cc2)cc1 (stereo unspecified)	-17	2	i	1	8	-2	-2	-2
CC1Cc2ccccc2N1S(=O)(=O)c1cnc[nH]1 (stereo unspecified)	-14	-16	i	-1	-8	-7	5	/
CC1(CCCN2C(=O)c3ccccc3C2=O)OCCO1	-14	/	i	-6	/	18	0	-16
Cc1nn(C(CC(=O)O)C(=O)O)c(C)c1Br (stereo unspecified)	11	-2	i	-2	1	-3	-1	/
O=C(Nc1cccc(-c2ccc(N3CCOCC3)nn2)c1)c1ccc(F)cc1F	-18	/	i	11	/	4	4	-23
Cc1cccc(NS(=O)(=O)c2ccc(C(=O)N3CCCC3)cc2)c1C	-10	/	i	-8	/	8	-7	/
Cc1cccc(C)c1NC(=O)N1CC(C)OC(C)C1 (stereo unspecified)	-9	-5	i	-5	-9	-1	0	7

Next section.
SMILES	UUG fidelity	eIF4H FP inh	Rce1 inhib	CSC inhib	PABP polyA inh	MT1-MMP act inh	MT1-MMP act inh RFP	HIV Env fusion	others
O=C(c1cc(-c2ccc(Cl)cc2Cl)on1)N1CCOCC1	-56	0	i	-9	8	-2	-3	/
C=C(C)C(=O)Nc1nnc(-c2ccccc2C)s1	/	-2	/	/	8	-3	-6	-15
COc1ccccc1NC(=O)Nc1ccncc1	/	-16	i	-13	-14	5	1	-1
O=C(CN1CCC(O)(c2cccc(C(F)(F)F)c2)CC1)NCCc1ccccc1	-5	-4	/	-3	-5	-1	-5	14
COc1cc(OC)c2c(-c3ccccc3)cc(=O)oc2c1C(CCN1CCCC(C)C1)c1ccc2c(c1)OCO2 (stereo unspecified)	-1	-15	i	6	-10	5	1	-7
CCN(CC)C(=O)Cn1cnc2sc(C)c(S(=O)(=O)N3CCC(C)CC3)c2c1=O	-10	12	i	/	-3	2	3	0
Cc1ccc(NS(=O)(=O)c2ccc(-n3cccn3)cc2)cc1Cl	-17	/	/	/	/	-3	-3	2
Cc1ccc(C2C(C#N)=C(N)Oc3cc(C)oc(=O)c32)o1 (stereo unspecified)	/	16	i	-15	5	-6	1	-2
O=S(=O)(NCCCN1CCOCC1)c1ccc2ccccc2c1	-7	-2	i	-6	-9	4	2	3
C=C(C)C(=O)OCC(C)C	-3	/	/	-11	/	1	8	/
COc1ccccc1CCN1CCCC(CN(C)C(=O)CCC(N)=O)C1 (stereo unspecified)	-5	1	i	7	4	5	7	3
O=C(Nc1ccc2c(c1)OCCO2)C1CCCN(S(=O)(=O)c2cccc3nsnc23)C1 (stereo unspecified)	4	0	i	-2	1	-3	-3	/
O=C(N/N=C/c1cccs1)[C@H]1C[C@@H]1c1ccccc1	-14	-1	i	0	-1	0	3	4
CCOC(=O)C1CCCN(C(=O)c2ccccc2)CC1 (stereo unspecified)	-22	/	/	/	/	1	0	-7
CCCCN1C(=O)c2ccc(C(=O)Nc3ccc(C)c(S(=O)(=O)N(C)C)c3)cc2C1=O	-14	-4	i	0	-11	-17	-26	15
CC(C)N(CCNCc1nnc(-c2ccccc2)o1)C(C)C	/	-2	i	-6	2	-1	3	-6
c1ccc(-c2cc(-c3nc4ccccc4[nH]3)c3ccccc3n2)cc1	/	2	i	64	-5	1	-8	-14
CC(C)(C)c1ccc(C(=O)NC(=S)Nc2ccc(N3CCOCC3)cc2)cc1	/	5	i	16	52*	3	5	27	eIF4H FP inh retest=13;PABP polyA inh retest=56*
CCOc1ccc(NC(=O)CN(C)C(=O)CC2CC3CCC2C3)cc1OCC (stereo unspecified)	0	-3	i	2	14	5	1	9
C[C@H](NC(=O)[C@@H]1CSC2c3ccccc3C(=O)N21)C(=O)NCCc1ccc(F)cc1 (stereo partly specified)	-9	-17	i	-10	0	1	2	-7
O=S(=O)(c1ccc(Br)s1)N1CCC2(CC1)OCCO2	-2	-14	i	-7	20	-1	0	/

Source: PubChem (several laboratories)
